TRPV1 potentiator – enhances activation of the human vanilloid receptor TRPV1 | Q8NER1 | TRPV1-expressing cells, Fluo-8 calcium influx, capsaicin EC20 potentiation; host cell line not named in the record; control for the full effect not named in the record | potentiation, % at 8.33 µM | 0.02% of 320,000 active; active means potentiation above 80%; inconclusive means 30% to 80%; inactive means below 30%; also: 0% is about no effect
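TRPV1-expressing cells were cultured overnight at 35.5C and loaded with Fluo-8 calcium dye for 40 to 90 min at room temperature. After a 10 s baseline, compound was added and calcium influx was read kinetically for 3 min (ex 480/em 520 nm).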
Six1-Eya2 blk – inhibitors of human Six1/Eya2 interaction | AID 651725 | 0.56% of 360,000 active | activity change, % (concentration not given with the values) | AlphaScreen GST-Six1/His-Eya2 binding, biochemical; hits give low values; control for the full effect not named in the record | Q15475+O00167; in the data active = activity change below about -65%; inconclusive = about -30% to -65%; inactive = above about -30%; also: % is scaled to controls: 0 for no effect and ±100 for the full control effect
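GST-Six1 + His-Eya2 (5X stock: 250/500 nM); Tris pH 8.0, 300 mM NaCl, 0.05% BSA, 0.02% Tween 20; GSH donor/Ni acceptor beads; 1 h 37 °C dark; AlphaScreen readout.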
Sfp inh – inhibitors of Bacillus subtilis Sfp phosphopantetheinyl transferase. Potency, µM, for inactives: max response, negative = inhibition, usual class: inhibitors. 3.5% of 310,000 active. Biochemical Sfp PPTase activity, qHTS. Q9F4F7; active = well fitted inhibition curve with a large enough effect; inconclusive = small, poorly fitted or top-dose-only effect, or another doubt; inactive = no such curve, though single readings can be large or run the other way;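 also: the enzyme is Sfp with the accession as filed and its product quenches rhodamine fluorescence; potency is read from the fitted curve at half-maximal effect; 0% = enzyme reaction without inhibitor and -100% = no enzyme wells; top concentration of the series not given in the record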
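Buffer: 50 mM Hepes-Na pH 7.6, 10 mM MgCl2, 0.01% Nonidet P-40, 0.01% BSA. Enzyme 15 nM, pre-exposed to compound 15 min; substrates then added and fluorescence change tracked over 30 min.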
CtBP-E1A inh – CtBP/E1A binding inhibition | AlphaScreen GST-E1A/His-CtBP binding, 1536-well; hits give low values; control for the full effect not named in the record | activity change, % (test concentration not listed) | 0.49% of 340,000 active | AID 651724; in the data active means activity change below about -65%; inconclusive means about -30% to -65%; inactive means above about -30%; also: % is scaled to controls: 0 for no effect and ±100 for the full control effect; compound concentration not given in the record
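Protein mix (5X: 125 nM each GST-E1A, His-CtBP) was incubated with pinned compound 2 h at 37 deg C in dark, in 50 mM Tris pH 8.0 buffer with 300 mM NaCl. Glutathione donor and nickel acceptor beads followed; AlphaScreen signal read after 1 h.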
PINK1 expr mod – modulators of PINK1 expression; PINK1 immunofluorescence, high-content cytometry, 24 h; AID 624263; 0.2% of 410,000 active; Potency, µM (doses to about 76.6 µM), for the others: at the highest dose activation (PINK1 increase), usual class: activators; active = well fitted activation curve with a large enough effect; inconclusive = small, poorly fitted or top-dose-only effect; inactive = flat fitted curve, though single readings scatter; cell line not stated here;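 also: potency is read from the fitted curve at half-maximal effect; % of control where 0% means no effect; nearly all actives have a fitted effect of over 65% in size; a mitochondrial uncoupler was the plate control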
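Decision-based qHTS: stable cells, 24 h exposure to five compound concentrations, CCCP as control. Fixed cells stained for PINK1 plus nuclear, mitochondrial and cell markers, cytometer read.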
D2 ag – human D2 receptor agonism in beta-arrestin assay | P14416 | DiscoveRx PathHunter D2 beta-arrestin, luminescence, 90 min; 100% = 57 uM dopamine signal | activation, % (test concentration not listed) | 0.084% of 360,000 active | AID 624465; in the data active = activation above about 40%; inconclusive = about 15% to 40%; inactive = below about 15%; also: compound concentration not given in the record; the text of the record calls up to 30% inactive
Target sequence (P14416 whole entry, looked up): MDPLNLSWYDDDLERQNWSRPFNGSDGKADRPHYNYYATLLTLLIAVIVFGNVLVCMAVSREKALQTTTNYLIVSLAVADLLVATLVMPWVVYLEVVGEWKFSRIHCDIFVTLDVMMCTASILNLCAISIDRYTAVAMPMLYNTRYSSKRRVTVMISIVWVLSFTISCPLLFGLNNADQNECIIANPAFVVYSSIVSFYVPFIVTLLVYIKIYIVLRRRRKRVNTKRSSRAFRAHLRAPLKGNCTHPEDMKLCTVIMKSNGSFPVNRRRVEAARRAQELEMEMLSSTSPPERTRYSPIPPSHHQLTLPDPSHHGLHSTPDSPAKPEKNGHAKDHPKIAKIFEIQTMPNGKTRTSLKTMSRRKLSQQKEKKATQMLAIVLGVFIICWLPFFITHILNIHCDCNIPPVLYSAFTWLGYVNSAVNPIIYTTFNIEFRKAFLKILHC
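DiscoveRx PathHunter D2 beta-arrestin cells (2,100/well) attached overnight, then compound-stimulated 90 min at 37 C in HBSS/10 mM HEPES/0.1% Tween-20 buffer; beta-galactosidase complementation read by luminescence after 1 h at ambient temperature. Dopamine 57 uM final (EC100) as control.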
D2 PAM – human D2 receptor positive allosteric modulation; potentiation, % (concentration not given with the values); DiscoveRx D2 beta-arrestin cells, luminescence, 90 min; 100% = 57 uM dopamine signal; AID 624464; 0.23% of 360,000 active; P14416; active = potentiation of 50% or more; inconclusive = 30% to 50%; inactive = 30% or less;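 also: compound concentration not given in the record; tested on top of an EC20 dose of dopamine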
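D2 cells co-treated with compound plus 50 nM dopamine (EC20) for 90 min at 37 deg C to detect potentiation. Beta-arrestin recruitment was read as enzyme-fragment luminescence after 1 h at ambient temperature. Full response was set by 57 uM dopamine.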
An asterisk follows results filed as active; u = inconclusive; x = not tested or not shown; [ ] = another dose, or the depositor's remark.

SMILES	TRPV1 potentiator	Six1-Eya2 blk	Sfp inh	CtBP-E1A inh	PINK1 expr mod	D2 ag	D2 PAM
Cc1nc2cc(NC(=O)Nc3cccc([N+](=O)[O-])c3)ccc2n1C	-28	3	-2%	-16	16%	-3.4	-24
CC1CCCCC12NC(=O)N(CC(=O)N1CCN(C(=O)c3ccco3)CC1)C2=O (stereo not given)	-8	0	x	4	1.1%	4.7	-3
CC1(C(=O)NCCCNc2ncc(C(F)(F)F)cc2Cl)C=CCN1C(=O)c1ccccc1 (stereo not given)	-6	0	25%	-1	1.2%	-0.6	-31
CC1(c2cccc(Br)c2)NC(=O)N(CC(=O)N2CCN(C(=O)c3ccco3)CC2)C1=O (stereo not given)	-8	-2	x	0	0.1%	-1.7	-3
CCN(CC)S(=O)(=O)c1ccc(N(C)Cc2cccnc2)nc1	-6	14	-1%	5	-0.7%	0.7	-12
Cc1ccc(-c2nn3cnnc3c3ccccc23)cc1C	-13	8	-5%	-2	4.4%	-4.3	3
COc1ccc(CN2CCN(C(=O)c3ccc4c(c3)CCC4)CC2)cc1OC	x	3	x	-1	0.3%	-4.0	-34
COc1ccc(NC(=O)CN(C)S(=O)(=O)c2ccc(C)cc2)c([N+](=O)[O-])c1	6	10	32%[activator]	8	u	-1.8	-10
COC(=O)CSC1=C(C#N)C(c2cccc(F)c2)CC(=O)N1 (stereo not given)	5	6	20%	-4	4.3%	-1.1	-3
Cc1ccc(Nc2ncccc2C(=O)NCc2cccs2)c(C)c1	x	-11	16%	1	x	-0.2	-20
Cc1oc(/N=C/c2ccc(Cl)cc2Cl)c(C#N)c1C	-3	-3	4%	5	3.3%	-3.6	-17
Cc1ccsc1C(=O)OCC(=O)NC1CCCCC1C (stereo not given)	-9	1	x	2	0.9%	-2.8	0
COc1ccccc1CN1CCN(Cc2nc(Cc3ccccc3)no2)CC1	-6	1	3%	x	1.4%	3.6	-13
COC(=O)Nc1nnc(/C=C/c2ccc(OC)cc2)s1	-17	16	7%	2	-0.8%	3.1	9
COc1ccc2oc(C(=O)OCC(=O)NC3CC3)c(C)c2c1	4	-8	4%	5	1.2%	0.0	-3
C1CCC(n2nnnc2CN2CCCC2)CC1	-5	-2	13%	3	2.9%[38.3 µM]	-2.4	-12
CCOc1ccc(CC(=O)Nc2ccc(NC(=O)c3ccco3)cc2)cc1OCC	10	-5	6%	0	14%	0.2	3
C=CCNCC(=O)Nc1sc2c(c1C(=O)Nc1ccc(OC)cc1OC)CCC2	1	-5	u	-2	5.7%	-3.0	-1
Cc1nnc(SCc2ccccc2)nc1-c1ccccc1	x	22	x	29	0.1%	-1.1	-4
COCC(=O)N(C)C[C@H]1Oc2cc(Br)ccc2S(=O)(=O)N([C@H](C)CO)C[C@H]1C	x	-4	x	7	0.7%	-6.3	6
O=C(COC(=O)CNS(=O)(=O)c1ccc(F)c(F)c1F)NC1CCCC1	3	-3	x	14	2.3%	-1.6	-5
O=C(Cn1cnc2ccccc2c1=O)c1c[nH]c2ccccc12	9	25	11%	0	0.9%	-1.9	-13
O=C(COC(=O)c1ccc(F)cc1)NC1CC1	1	0	x	x	0.1%	-3.7	2
Cc1ccc(Cn2c(=O)n(CCC(=O)NCc3ccc4c(c3)OCO4)c(=O)c3ccccc32)cc1	9	11	u	2	-0.2%	0.6	-3
COc1ccc(OC)c(-n2c(N)c(C(=O)NCC3CCCO3)c3nc4ccccc4nc32)c1 (stereo not given)	-18	18	-3%	24	2.6%	-0.1	-10
Fc1ccc(CSc2nnc(-c3cccnc3)o2)cc1	7	5	12%	10	0.5%	-5.0	-13
CC(C)c1ccc(CN2CCN(C(=O)CCl)CC2)cc1	-11	9	9%	x	-2.9%	3.5	-21
Cc1nc(C)c(-c2ccc(SCC(=O)Nc3cccc(Cl)c3C)nn2)s1	-16	-16	2%	-4	-0.1%	4.3	-9
S=C(NCC1CCCO1)NC1CCCC1 (stereo not given)	2	-1	1%	-4	1.5%	6.4	-3
CCCCn1c(N)c(N(CCOC)C(=O)c2cc(S(=O)(=O)N3CCOCC3)ccc2F)c(=O)[nH]c1=O	-1	5	x	7	-0.4%	-3.8	-23
CCOc1cc(N2CCOCC2)c(OCC)cc1NC(=O)COC(=O)/C=C/c1ccc(OC(F)F)cc1	-12	-4	x	-1	7.6%	3.6	10
CCN(CC)CCCCOc1ccccc1OC	-17	2	15%	6	3.5%[38.3 µM]	-3.1	-11
COc1ccc(CCCC(=O)NC(C)c2ccccc2)cc1 (stereo not given)	-24	8	5%	0	-0.3%	-1.9	-6
CC(=O)Nc1ccc(NC(=O)COC(=O)Cn2cnc3ccccc32)cc1	x	-4	x	8	0.1%	-4.5	-6
COc1ccc(C(=O)N2CCN(C(=O)Cc3ccccc3)CC2)cc1OC	0	5	10%	10	-1.6%[38.3 µM]	-0.2	-25
COc1ccc(-c2noc(COC(=O)c3ccco3)n2)cc1OC	11	0	x	x	-0.1%	-1.5	6
[O-][n+]1cccc2ncc3cscc3c21	-12	-1	7%	x	-1.0%	4.8	2
O=C(Nc1ccccc1)C1=C[C@H](c2ccccc2)C[C@H](OCCCCO)O1	x	u	x	-10	13%	-2.9	-19
COC(=O)C1=C(O)/C(=C\c2cc(C)n(-c3ccccc3C)c2C)N=C1C	-4	-12	45µM*	3	x	-0.1	-23
CCCCOc1ccc(C(=O)Nc2ccc(S(=O)(=O)Nc3cc(C)on3)cc2)cc1OC	-2	4	2%	1	1.3%	2.2	8
O=C(CCS(=O)(=O)c1ccc(Br)cc1)NCc1ccc(F)cc1	-4	-23	15%	x	-0.1%	-1.3	-5
CC(OC(=O)/C=C/c1cccs1)C(=O)NC1CCCCC1C (stereo not given)	u	5	12%	5	-0.8%	-2.5	4
COCC(=O)Nc1nc2ccc(C)cc2s1	-10	-5	17%	4	1.1%	0.2	-6
CCOC(=O)c1ccc(NC(=O)NC2CC3CCC(C2)N3Cc2nnnn2C(C)(C)C)cc1 (stereo not given)	-12	-1	9%	4	11%	-1.9	-9
Cn1c(=O)c([N+](=O)[O-])c(NCC2CCCO2)c2ccccc21 (stereo not given)	8	-6	-16%	-5	-0.5%	-1.3	-7
NNC(=O)c1csc(-c2ccccc2)n1	-2	1	6%	0	0.0%	-6.3	-7
Cc1ccc(C)c(N2CCN(CC3CC=CCC3)CC2)c1 (stereo not given)	-16	3	8%	9	10.0%[38.3 µM]	2.6	-30
O=C(CNC(=O)c1cccnc1)N/N=C/c1cccnc1	-11	3	23%	4	2.1%	-1.4	-5
CS(=O)(=O)c1ccccc1C(=O)Nc1ccc(S(=O)(=O)N2CCCC2)cc1	x	1	x	0	-3.3%	3.8	-1
CNC(CC(=O)c1ccc([N+](=O)[O-])cc1)C(Cl)(Cl)Cl (stereo not given)	6	-14	10µM*	9	-2.0%	6.6	19
COc1ccccc1NC(=O)c1cccc(S(=O)(=O)N2CCN(Cc3ccccc3)CC2)c1	-13	-2	x	u	-2.9%	-2.4	-67
O=C(Nc1ccccc1Cl)N1CCN(c2ncccn2)CC1	-17	0	3%	2	-0.5%	-0.6	13
CCCCCCCNC(=O)c1cc(-c2ccncc2)nc2ccccc12	3	6	u	12	3.9%	2.8	-1
Cc1ccc(/C([O-])=C(/C(=S)NCc2ccc3c(c2)OCO3)[n+]2ccc(N(C)C)cc2)c(C)c1	4	-13	1%	10	-2.3%	0.1	-15
COc1ccc2c(c1)C(c1ccc(N3CCOCC3)cc1)=NNC(c1cccnc1)=N2	-3	-17	1%	-27	8.4%	-1.9	-16
C=C(C)c1cccc(C(C)(C)NC(=O)NC2CCCC2)c1	-20	-6	5%	1	u	0.8	4
O=C(Nc1cn(-c2ccccc2)nc1-c1ccc(Cl)cc1)c1ccccc1	13	-5	8%	-5	8.3%	-2.0	-6
CC(Oc1ccc(Cl)cc1Cl)c1ccn[nH]1 (stereo not given)	-3	8	10%	-24	-0.7%	3.7	-5
CCN(CC)CCCNC(=O)C1c2ccccc2C(=O)N(CCOC)C1c1ccc(F)cc1 (stereo not given)	2	0	13%	0	0.7%	-0.8	-1
CCCCNC(=O)COC(=O)CCC(=O)c1ccc(Cl)cc1	0	2	9%	1	3.0%	-4.9	-7
(list continues)
SMILES	TRPV1 potentiator	Six1-Eya2 blk	Sfp inh	CtBP-E1A inh	PINK1 expr mod	D2 ag	D2 PAM
C[n+]1ccc(C(=O)NCCC[N+](C)(C)C)cc1/C=N/O	-1	4	15%	-12	-0.1%	-2.6	-28
COc1ccccc1N=Nc1ccc(O)c2ncccc12	18	-70*	1%	x	11%	-6.6	11
Cc1ccc2c(c1)N(CCCC(=O)NCc1ccc3c(c1)OCO3)C(=O)CO2	15	-1	-11%	2	0.9%	-4.0	1
Cc1cc(C)n(S(=O)(=O)c2ccccc2[N+](=O)[O-])n1	1	0	11%	-11	-0.2%	-1.3	4
CCCCN(C(=O)CNC(=O)c1cccs1)C(C(=O)NC1CCCC1)c1ccncc1 (stereo not given)	9	0	16%	2	-4.2%	3.3	-1
COc1ccc(C)cc1NC(=O)Cn1c(=O)oc2ccccc21	-4	-1	-26%	5	3.0%	-2.2	-5
CNC(=O)C(C#N)(Cc1cc(C(C)=O)ccc1OC)Cc1cc(C(C)=O)ccc1OC	4	3	10%	0	0.5%	0.4	-3
C=CCOc1cccc(C2C(C(=O)c3ccco3)=C(O)C(=O)N2Cc2ccco2)c1 (stereo not given)	1	-13	u	-9	2.0%	1.2	-5

Entries shown so far with a nitro group on carbon:
SMILES	TRPV1 potentiator	Six1-Eya2 blk	Sfp inh	CtBP-E1A inh	PINK1 expr mod	D2 ag	D2 PAM
Cc1nc2cc(NC(=O)Nc3cccc([N+](=O)[O-])c3)ccc2n1C	-28	3	-2%	-16	16%	-3.4	-24
COc1ccc(NC(=O)CN(C)S(=O)(=O)c2ccc(C)cc2)c([N+](=O)[O-])c1	6	10	32%[activator]	8	u	-1.8	-10
Cn1c(=O)c([N+](=O)[O-])c(NCC2CCCO2)c2ccccc21 (stereo not given)	8	-6	-16%	-5	-0.5%	-1.3	-7
CNC(CC(=O)c1ccc([N+](=O)[O-])cc1)C(Cl)(Cl)Cl (stereo not given)	6	-14	10µM*	9	-2.0%	6.6	19
Cc1cc(C)n(S(=O)(=O)c2ccccc2[N+](=O)[O-])n1	1	0	11%	-11	-0.2%	-1.3	4

Source: PubChem

Rows were taken by chance. About 3.7% of those tested had a hit in this group.
